KCNQ2 block – KCNQ2 potassium channel inhibitors, primary screen, cell-based, CHO-K1, FluxOR thallium flux, B-score (AID 2156); Potassium voltage-gated channel subfamily KQT member 2 (Rattus norvegicus), O88943; 20 min; stronger effect = lower value; only compounds with negative scores are shown here; some inactives read as strong as hits; B-score at 10 µM; 1.1% of 310,000 active;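 active = fluorescence ratio B-score at most minus 3 library SDs, with starting brightness B-score within 2 library SDs, cut at about -5.5 in these data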
Target sequence (O88943 whole entry, looked up): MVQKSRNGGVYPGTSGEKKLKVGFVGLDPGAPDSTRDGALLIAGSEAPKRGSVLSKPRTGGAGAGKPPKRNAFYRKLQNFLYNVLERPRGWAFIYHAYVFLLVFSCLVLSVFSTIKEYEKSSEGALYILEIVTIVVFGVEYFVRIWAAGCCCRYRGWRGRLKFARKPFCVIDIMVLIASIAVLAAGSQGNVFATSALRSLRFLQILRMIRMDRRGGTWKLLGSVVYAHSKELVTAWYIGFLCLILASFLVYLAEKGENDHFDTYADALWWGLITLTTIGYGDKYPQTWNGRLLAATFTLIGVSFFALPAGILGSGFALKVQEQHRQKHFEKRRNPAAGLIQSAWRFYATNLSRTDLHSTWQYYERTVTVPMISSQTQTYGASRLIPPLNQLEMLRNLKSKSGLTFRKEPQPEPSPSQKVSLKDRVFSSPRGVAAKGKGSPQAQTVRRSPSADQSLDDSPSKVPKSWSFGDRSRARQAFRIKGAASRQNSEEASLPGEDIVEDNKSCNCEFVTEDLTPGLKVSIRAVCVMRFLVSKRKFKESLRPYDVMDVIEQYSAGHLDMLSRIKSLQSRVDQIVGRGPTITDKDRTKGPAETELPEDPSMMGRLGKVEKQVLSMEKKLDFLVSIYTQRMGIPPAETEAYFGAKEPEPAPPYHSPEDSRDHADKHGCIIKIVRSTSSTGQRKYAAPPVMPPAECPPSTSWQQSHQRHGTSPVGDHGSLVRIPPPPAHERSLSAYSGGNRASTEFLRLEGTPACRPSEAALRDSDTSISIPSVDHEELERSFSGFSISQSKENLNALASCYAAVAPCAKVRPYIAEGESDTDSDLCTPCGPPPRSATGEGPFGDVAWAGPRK
KCNQ2 block baseline – further read-out of KCNQ2 block, marked with its call; B-score; measured here: initial fluorescence intensity artifact check;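 brightness before thallium and not channel activity; 0 = typical well and far values either way flag optical interference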
* marks the source's active call; other numbers are inactive results; i = inactive. The list is partial, so the mix of outcomes need not match the whole.

SMILES | KCNQ2 block | KCNQ2 block baseline
Cc1c(Cl)ccc(S(=O)(=O)NCCCn2ccnc2)c1Cl | i | 2.2
COc1ccc(NC(=O)N(Cc2cccs2)Cc2cc3cc4c(cc3[nH]c2=O)OCO4)cc1 | i | -0.09
O=C(NC1CC2CCCC(C1)N2C(=S)Nc1ccc(Cl)cc1)C1CC1 (stereo not given) | i | -1.2
NCCCC[C@H]1CN=C(N)N1CC1CCCCC1 | i | 1.2
Fc1ccc(/C=N/N2CCOCC2)c(F)c1 | i | -0.02
Cc1ccc(C(=O)NCC(=O)OCC(=O)c2ccc(Br)s2)cc1 | i | -1.3
CCOC(=O)c1ccccc1NC(=O)COC(=O)CN1C(=O)NC2(CCCC2)C1=O | i | 0.23
COc1ccc(C2C3=C(CC(C)(C)CC3=O)Nc3c2c(=O)[nH]c2nc(C)nn32)cc1 (stereo not given) | i | 0.42
CC(Sc1nnc2ccccn12)C(=O)Nc1ccc2c(c1)OCO2 (stereo not given) | i | -0.02
CC1CCN(c2nc(-c3ccco3)c3c(c2C#N)CC(C)(C)OC3)CC1 | i | 1.6
Cc1cnn(CCC(=O)NNC(=S)Nc2ccc(F)cc2)c1 | i | -0.96
N#Cc1cccc(NC(=O)CCn2ccnc2)c1 | i | 0.05
NC(=O)C1CCN(C(=O)COc2ccc3ccc(=O)oc3c2)CC1 | i | 0.58
CSCCC(NC(=O)c1ccc(Cl)cc1Cl)C(=O)OC1CCCCC1=O (stereo not given) | -8.1* | -0.76*
CC(Sc1ncnc2ccccc12)C(=O)Nc1ccc2c(c1)OCO2 (stereo not given) | i | -0.63
CC(C)n1ncc(C(N)=O)c1N | i | 2.8
O=C(C1CC(c2ccc(F)cc2)=NO1)N1CCc2ccccc2C1 (stereo not given) | i | -0.29
CSc1ccc(NC(=O)NCCCN2CCC(Cc3ccccc3)CC2)cc1 | i | 0.06
O=C1CCCN2N=C(SCC(=O)Nc3nccs3)SC2=N1 | i | 0.76
COc1cc(S(=O)(=O)NCCCN2CCOCC2)ccc1-n1cnnn1 | i | 1.2
CCOC(=O)N1CCC(n2c(SCC(=O)OCc3ccccc3)nc3ccsc3c2=O)CC1 | i | 0.25
S=C(NCc1cccc(Cl)c1)NCc1ccco1 | i | 0.09
COc1ccc(Br)c(C(=O)Nc2nc3ccccc3[nH]2)c1 | i | 2.6
Cc1cc(C)cc(Nc2ncnc3nc[nH]c23)c1 | i | 0.73
Oc1ccc(C[C@@H]2CNC(=S)N2CCCCC2CCCCC2)cc1 | i | -1.6

4 compounds already listed, arranged by the number in KCNQ2 block baseline, falling:
mol	KCNQ2 block baseline
Cc1c(Cl)ccc(S(=O)(=O)NCCCn2ccnc2)c1Cl	2.2
CCOC(=O)N1CCC(n2c(SCC(=O)OCc3ccccc3)nc3ccsc3c2=O)CC1	0.25
Cc1cnn(CCC(=O)NNC(=S)Nc2ccc(F)cc2)c1	-0.96
Oc1ccc(C[C@@H]2CNC(=S)N2CCCCC2CCCCC2)cc1	-1.6

Continuation:
SMILES | KCNQ2 block | KCNQ2 block baseline
CC(C)OCCCNC(=O)c1cccs1 | i | -0.11
COc1cc(C(=O)Nc2ccc(S(=O)(=O)N3CCc4ccccc43)cc2)cc(OC)c1OC | i | -3.1
CC(=O)c1cccc(NC(=O)N2CCCC2C(=O)NCc2ccc(F)cc2)c1 (stereo not given) | i | -0.76
O=C(O)c1ccccc1NCc1ccncc1 | i | -1.1
O=C(N/C(=C/c1ccc(Br)cc1)C(=O)N1CCCCC1)c1ccccc1F | i | 1.1
COc1cccc(CNC(=O)CCCn2nc(C)c3c(C)n(-c4ccc(C)cc4)nc3c2=O)c1OC | i | -0.09
Cn1cccc1C1(C(F)(F)F)NCCNC1=O (stereo not given) | i | 0.05
Cc1ccc(NC(=O)/C(=C/c2cccc(Br)c2)NC(=O)c2ccco2)cc1 | i | -0.03
CN(C1CCCCC1)C(CNS(=O)(=O)c1ccccc1)c1ccccc1 (stereo not given) | i | -0.1
O=c1[nH]c(=O)n([C@H]2C[C@H](O)[C@@H](CO)O2)cc1F | i | 1.7
CC(C)CC(C(=O)NCC1CCCO1)N(C(=O)Cn1nnc(-c2ccc(F)cc2)n1)c1ccccc1F (stereo not given) | i | -1.1
CC(=O)CCc1oc2ccc(C)cc2c1-c1ccccc1 | i | -0.04
CCOC(=O)c1c(C(C#N)C#N)cc(C)nc1C | i | 0.73
CCCCSc1nc(C)cc(C)c1S(=O)(=O)c1ccccc1C | i | 0.52
CCn1cc(Br)c(C(=O)N(C)Cc2ccccc2)n1 | i | -1.2
O=C(Nc1ccc(S(=O)(=O)N2CCCCC2)cc1)c1ccco1 | i | -0.03
C#CCOCCOCCOCCNc1nc(N2CCN(C(=O)[C@H](CCC(=O)O)n3cc(C(N)Cc4ccc(O)cc4)nn3)CC2)nc(N2CCN(C(=O)[C@H](Cc3cc4ccccc4[nH]3)n3cc(C(N)CC(C)C)nn3)CC2)n1 (stereo not given in full) | i | -0.44
Cn1cc(CN2CCN(Cc3cccnc3)CC2)c(-c2ccc3c(c2)OCCO3)n1 | i | -0.78
N#C/C(=C\c1cccc([N+](=O)[O-])c1)C(=O)Nc1cccnc1 | i | -0.11
CCOc1cc(CNc2ccc(N3CCCC3)cc2)cc(Cl)c1OC | i | -0.25
Cc1ccc(-n2nnnc2SCc2nnc(-c3ccccc3Br)o2)c(C)c1 | i | 0.05
COc1ccc(CCNC(=O)C(Sc2ccccn2)c2ccccc2)cc1OC (stereo not given) | i | -1.4
Cc1ccccc1Nc1nc(NCc2ccco2)c2ccccc2n1 | -6.3* | -0.69*
COc1ccc(-c2nsc3c(N4CCCCC4C)ncnc23)cc1 (stereo not given) | i | 0.13
COc1ccc(CCNC(=O)c2ccccc2OCc2ccccc2)cc1 | i | 0.93
Continuation.
SMILES | KCNQ2 block | KCNQ2 block baseline
Nc1nc(-c2ccco2)nn1S(=O)(=O)c1ccccc1 | i | -1.3
CCOC(=O)c1ccc(NC(=O)CSc2nc(NC(=O)c3ccccc3)c3c(C)c(C)oc3n2)cc1 | i | 2.1
Cc1cccc(C)c1N(CC(=O)N(C)Cc1ccccc1)S(C)(=O)=O | i | -0.07
Nn1c(SCC(=O)NCC2CCCO2)nnc1-c1ccc(OC(F)F)cc1 (stereo not given) | i | 0.05
CC1(C)Cc2c(sc3c2c(N)nc(=S)n3Cc2ccccc2)CO1 | i | -1.3
Cc1cc(C)n(S(=O)(=O)c2ccc(Cl)cc2)n1 | i | 1
CCCN(CCC)C(=O)c1ccc2c(c1)S(=O)(=O)c1ccccc1C2=O | i | -1.8
CCOC(=O)c1c(C2CC2)csc1NC(=O)COC(=O)c1cc(OC)c(OC)cc1[N+](=O)[O-] | i | 0.66
O=C(COC(=O)CCc1nc2ccccc2s1)Nc1ccc(S(=O)(=O)N2CCOCC2)cc1 | i | -0.67
O=S(=O)(N/N=C\c1ccc(-c2ccccc2Cl)o1)c1ccccc1 | i | -1.2
COCCOc1cc(NC(=O)c2ccccc2)c(Cl)cc1Cl | i | -0.22
C=CCNC(=O)CC12CC3CC(C1)CC(CC(=O)NCC=C)(C3)C2 | i | 0.23
COC(=O)c1ccc(OC(=O)CCN2C(=O)C3C4c5ccccc5C(c5ccccc54)C3C2=O)cc1 (stereo not given) | i | -2.5
COc1ccc(C2SC[C@@H](C(=O)O)N2C(C)=O)cc1 (stereo not given in full) | i | 3
O=C(NCCO)c1cccc(Cl)c1 | i | 2.7
COc1ccc(NC(=O)COC(=O)[C@@H]2CCCN2C(=O)c2cccs2)cc1 | i | 2.4
COc1ccc(C)cc1NC(=O)C(NCC(O)c1ccccc1)c1ccccc1 (stereo not given) | i | -0.59
NNc1nnc2c3cc(F)ccc3n(CCc3ccccc3)c2n1 | i | 0.38
C#CCOCCOCCOCCNc1nc(N2CCN(C(=O)[C@H]([C@@H](C)CC)n3cc([C@@H](N)CO)nn3)CC2)nc(N2CCN(C(=O)[C@H]([C@@H](C)CC)n3cc([C@@H](N)CC(C)C)nn3)CC2)n1 | i | 1
COCCNC(=O)c1cccc(OC2CCN(Cc3ccc(F)c(OC)c3)CC2)c1 | i | 0.59
O=C(Nc1nccs1)c1ccc(COc2ccc(Cl)cc2)o1 | i | 2.3
O=C1CCc2cc(NS(=O)(=O)c3ccc(Cl)cc3)cc3c2N1CC3 | i | -2
COc1ccc(CN2CC(=O)N(c3cc(Cl)ccc3C)C2=S)cc1OC | i | -0.59
O=C(c1ccco1)N1CCN(S(=O)(=O)c2c(Cl)cccc2Cl)CC1 | i | 0.03
O=C(Nc1ccc2c(c1)OCO2)c1n[nH]c(=O)c2ccccc12 | i | 1.6

Some of the entries so far, as tab-separated lines.
smiles	KCNQ2 block	KCNQ2 block baseline
O=C(COC(=O)CCc1nc2ccccc2s1)Nc1ccc(S(=O)(=O)N2CCOCC2)cc1	i	-0.67
NNc1nnc2c3cc(F)ccc3n(CCc3ccccc3)c2n1	i	0.38
Cc1cc(C)n(S(=O)(=O)c2ccc(Cl)cc2)n1	i	1
COc1ccc(CN2CC(=O)N(c3cc(Cl)ccc3C)C2=S)cc1OC	i	-0.59
COCCOc1cc(NC(=O)c2ccccc2)c(Cl)cc1Cl	i	-0.22
CCOC(=O)c1ccc(NC(=O)CSc2nc(NC(=O)c3ccccc3)c3c(C)c(C)oc3n2)cc1	i	2.1

In the list so far, these have a nitro group on carbon.
SMILES | KCNQ2 block | KCNQ2 block baseline
N#C/C(=C\c1cccc([N+](=O)[O-])c1)C(=O)Nc1cccnc1 | i | -0.11
CCOC(=O)c1c(C2CC2)csc1NC(=O)COC(=O)c1cc(OC)c(OC)cc1[N+](=O)[O-] | i | 0.66

Other entries:
SMILES | KCNQ2 block | KCNQ2 block baseline
Cc1ccccc1Cn1ccc(-c2ccc3c(c2)OCO3)n1 | -6.7* | -0.15*
COc1ccc(/C=C/C(=O)O)cc1S(=O)(=O)NCc1ccccc1 | i | -0.03
CCCN(CC(=O)Nc1ccccc1C)C(=O)c1ccc(S(=O)(=O)N2CCCCCC2)cc1 | i | 0.85
CCOc1ccc(C(=O)COC(=O)c2cccc(-n3cnnn3)c2)cc1 | i | -1.1
CCOC(=O)c1c(C)oc2c1C(=O)c1ccccc1C2=O | i | -0.02
Clc1ccc(Cn2nnc(-c3ccc(CN4CCOCC4)cc3)n2)cc1 | i | 0.01
CCOC(=O)c1sc2nc(CSc3ccccc3)nc(N3CCC(C(N)=O)CC3)c2c1C | i | 0.58
O=S(=O)([N-]c1nc2ccccc2nc1-n1cc[n+](Cc2ccccc2)c1)c1ccc(Br)cc1 | i | 0.97
O=C(c1cnc2n(c1=O)CCS2)N1CCN(C(c2ccccc2)c2ccc(Cl)cc2)CC1 (stereo not given) | i | -2
COC(=O)c1ccc(NC(=O)CN2CCCC2)cc1 | i | 0.27
COc1cccc(OCCOCC(O)CN2CCN(Cc3ccc(Cl)cc3)CC2)c1 (stereo not given) | i | -0.92
CC1(C)Cc2c(cnn2-c2ccccc2)C(NC(=O)c2ccoc2)C1 (stereo not given) | i | -1.5
CC(C)NC(=O)C(=O)NNC(=O)C12CC3CC(CC(C3)C1)C2 | i | 0.75
CCOC(=O)C1(CC2CC2)CCN(Cc2ccc(C(=O)OC)cc2)CC1 | i | 0.85
Cc1ccc2cc(/C=N/NC(=O)c3ccccc3[N+](=O)[O-])c(Cl)nc2c1 | i | -1.2
COc1ccc(CC(=O)N2CCN(c3ccccc3)CC2)cc1OC | i | -0.1
O=C(CSc1ncnc2sc3c(c12)CCCCC3)NCc1ccco1 | i | -3.3
O=C(c1ccccc1SCc1ccccc1)N1CCCCCC1 | i | -0.45
Cc1cc(=O)oc(C)c1C(=O)Nc1ccccc1F | i | 1.5
COc1ccc(NC(=O)CN2CCN(C3c4ccccc4-c4ccccc43)CC2)cc1 | i | -0.64
O=c1[nH]c2ccccc2n2cnnc12 | i | 0.24
Cc1ccc(C)c(NS(=O)(=O)c2cc(C(=O)Nc3ccccc3-c3ccccc3)ccc2C)c1 | -6.2* | -0.5*
COc1ccc(OC)c(Nc2c3c(nc4ccccc24)CCC3)c1 | i | 0.79
CN(C)S(=O)(=O)N1CCC(Oc2ccc(C(=O)NC3Cc4ccccc4C3)cc2)CC1 | i | -0.05
COc1ccc(C=C2C(=O)c3ccccc3C2=O)cc1O | i | -0.19
Next results
SMILES | KCNQ2 block | KCNQ2 block baseline
CC1(C)Cc2c(sc3c2c(=N)n(Cc2ccco2)c(=O)n3CC(=O)Nc2ccccc2)CO1 | i | 0.03
Cc1nn(-c2nc3ccccc3s2)c(N)c1-c1ccc(Cl)cc1 | i | -0.02
Cc1nn(Cc2ccc(C(=O)Nc3ccc(C(=O)OC(C)C)cc3)o2)c(C)c1Cl | i | -0.83
O=C(Nc1ccccc1Cl)c1ccc2nc(N3CCOCC3)sc2c1 | i | 1.1
COc1cccc(NC(=O)CCC(=O)N2CC(C)Oc3ccc(C)cc32)c1 (stereo not given) | i | -0.86
C/C(=C\c1ccccc1)C(=O)NCCN1CCOCC1 | i | 0.77
CC(=O)Nc1ccc(NC(=O)c2c(C)nn(Cc3ccccc3)c2Cl)cc1 | i | -2.3
Cc1noc(C)c1S(=O)(=O)N(CC(=O)N1CCc2ccccc21)c1ccc(C(C)C)cc1 | i | -0.16
COc1ccc(CN(C(=O)c2nsc(Cl)c2Cl)C(C(=O)NC2CCCC2)c2ccc(C)cc2)cc1 (stereo not given) | i | -0.2
CCOC(=O)c1cc(S(=O)(=O)NC2CCCCC2)cn1C | i | -0.96
Cc1ccc(C)c(S(=O)(=O)N2CCCOC2CNC(=O)C(=O)NCCCN2CCOCC2)c1 (stereo not given) | i | 3
Cc1cc(C(=O)COC(=O)c2nccnc2N)c(C)n1C | i | 3.3
CC(=O)Nc1ccc(Cl)c(C(N)=O)c1 | i | 0.49
C[C@H]1CC[C@H]2C(=O)N3[C@H](c4ccccc4Br)[C@@H](C)CC[C@H]3C(=O)N2[C@@H]1c1ccccc1Br | i | 0.61
C(=C\c1ccccc1)/CSc1nnc(-c2ccccc2)n1Cc1ccco1 | -5.9* | -0.2*

Source: PubChem BioAssay
